# CDC25B-CDK2 inh: human CDC25B-CDK2/CyclinA binding inhibition. HTRF CDC25B-CDK2/CyclinA binding, anti-His/anti-Flag; active compounds read high. 94,000 compounds, 0.72% hits. z-score (no concentration beside the values);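 note: score is relative to mean and SD of negative controls; strong numbers were not always called active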
# TAR Tat displ: HIV-1 TAR-Tat binding disruption | HIV-1 TAR RNA, Tat peptide displacement FRET; active compounds read high | 100,000 compounds, 0.6% hits | z-score (concentration not given with the values);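 note: score is relative to mean and SD of negative controls; some compounds called inactive have numbers as strong as hits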
# * hit, by the source's call; · = no result given.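 Rule for the calls: active = z-score from 3 up in half or more of its runs; inactive = the rest.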
# Under each structure – CDC25B-CDK2 inh | TAR Tat displ
CSc1ccc(C2Nc3ccccc3NC3=C2C(=O)CC(C)(C)C3)cc1 (configuration not stated)
    -1.9 | 1.1
CC(C)Oc1ccc(Cc2nc(-c3ccc(Br)cc3)n[nH]c2=O)cc1
    · | 2.3
CC1CN(C(=O)CCC(=O)NCC2CCCO2)c2ccccc2S1 (configuration not stated)
    · | 0.18
CC1=C(c2ccc(C(C)C)cc2)S(=O)(=O)N=C1N1CCC(C(=O)N2CCCC2)CC1
    · | 0.72
Cc1cc(C(F)F)n2nc(C(=O)Nc3cc(Cl)ccc3O)nc2n1
    0.44 | 0.08
O=S(=O)(Nc1nc2ccccc2nc1NCCc1ccccc1)c1ccc(Cl)cc1
    0.29 | 1.4
COC(=O)C(Cc1c[nH]c2ccccc12)NC1OC(=O)c2c1ccc(OC)c2OC (configuration not stated)
    -0.18 | ·
Cc1ccc(C)c(NS(=O)(=O)c2cc(-c3onc(C)c3C)ccc2C)c1
    · | 0.6
COc1ccc(S(=O)(=O)N2CCN(c3cc(N4CCCCC4)nc(C)n3)CC2)c(C)c1C
    1.4 | 0.39
Cc1c(C(=O)NC(C)C)oc2ccc3c(c12)C(=O)CC1(CCCCC1)O3
    -1.2 | 1.9
COc1cc(C2c3c(oc4ccccc4c3=O)C(=O)N2c2nccs2)cc(Br)c1O (configuration not stated)
    -0.48 | 0.66
Cc1c(NC(=O)CC2SC(=O)NC2=O)c(=O)n(-c2ccccc2)n1C (configuration not stated)
    0.58 | 0.05
CS(=O)(=O)N1CCc2cc(C(=O)N(Cc3ccccc3)Cc3ccccc3)ccc21
    -0.74 | 0.65
Nc1c(C(=O)NCc2ccc3c(c2)OCO3)nnn1Cc1ccc(Br)cc1F
    0.55 | -0.15
CC1CCCC(NS(=O)(=O)c2ccc(CCN3C(=O)c4cccnc4C3=O)cc2)C1C (configuration not stated)
    · | 1
CCC(CO)n1cc2c(c1-c1cccc(Br)c1)c(=O)n(C)c(=O)n2C (configuration not stated)
    -0.37 | 1.4
COc1ccc(N2C(=O)C3ON(c4ccccc4)C(c4ccccc4)C3C2=O)cc1 (configuration not stated)
    -1.2 | 2
Cc1ccc(-c2cc(C(F)(F)F)n3nc(C(=O)NCC4CCCO4)nc3n2)cc1 (configuration not stated)
    · | 0.92
Cc1ccc(C2CC(=O)Nc3cc4c(cc32)OCCO4)cc1Br (configuration not stated)
    0.86 | 0.3
O=C(Nc1ccc(F)c(Cl)c1)Nc1c[nH]c(=O)[nH]c1=O
    · | -0.07
CCOC(=O)c1[nH]nc(Nc2ccc(Cl)cc2)c1C(=O)OCC
    2.3 | 1.8
CCc1nn2c(=O)cc(COc3ccc(NC(=O)CC(C)C)cc3)nc2s1
    0.65 | 0.87
CS(=O)(=O)N1CCCc2ccc(NS(=O)(=O)c3ccccc3F)cc21
    · | 1.1
CCCn1c(=O)c(C(=O)Nc2nc3ccc(F)cc3s2)c(O)c2ccccc21
    -1.7 | ·
COc1cc2c(cc1OC)C(C)N(S(=O)(=O)c1cc3c(cc1C)NC(=O)CO3)CC2 (configuration not stated)
    · | 1.2
Cc1sc(C)c(S(=O)(=O)N2CCc3ccccc3C2)c1-c1ccno1
    · | -1.1
COc1ccc(-n2nnc(-c3nc(-c4cccnc4)no3)c2N)cc1OC
    · | 0.3
O=S(=O)(NCc1cccs1)c1ccc(-n2cccn2)cc1
    · | 1.6
COC(=O)Cn1ncn2c(cc3sccc32)c1=O
    -1.4 | 0.45
COc1ccc(-c2cc(=O)c3cc(OCC(=O)OC(C)C)ccc3o2)cc1
    1.1 | -2.7
O=C(COc1ccc(F)cc1)Nc1onc2c1CCCC2
    -2.1 | 2.1
CNC(=O)c1ccc(CN2CC(=O)N3CSCC3C2=O)cc1 (configuration not stated)
    · | 1.3
O=C(O)c1ccc(C(=O)O)c(-c2nc3ccccc3s2)c1
    0.15 | 0.14
Cc1cc(C)c(-c2n[nH]c3c2C(c2cccc(O)c2)N(CCO)C3=O)c(O)c1 (configuration not stated)
    -1.4 | 2.7
CC1CN(C(=O)CCC(=O)N2CCCCC2)c2ccccc2O1 (configuration not stated)
    -0.1 | -0.28
O=C1C2CCCCC2C(=O)N1c1ccc(N2C(=O)C3C4C=CC(C4)C3C2=O)cc1 (configuration not stated)
    -0.6 | ·
CCc1cc2c3c([nH]c2cc1S(=O)(=O)Nc1cc(C)cc(C)c1)CCCC3=O
    · | 2.6
CCOc1ccc(S(=O)(=O)NCc2ccccn2)c(C)c1C
    1.1 | 0.89
CCOc1ccc(N(CC(=O)N2CCc3ccccc3C2)S(C)(=O)=O)cc1
    -0.98 | ·
CCOC(=O)c1cnc(SCC(=O)NCc2ccco2)nc1N
    · | 5.5
COC(=O)c1cc(C(N)=O)c(SC)s1
    -0.48 | ·
COC(=O)c1ccc([C@@H]2Nc3c(OC)cc(OC)cc3[C@@H]3C=CC[C@@H]32)cc1
    -1.8 | ·
CCOC(=O)COc1ccc(/C=C2\SC(=Nc3cccc(Cl)c3C)NC2=O)cc1OCC
    -1.8 | ·
CC1CCn2c(nc3cc(C(=O)N4CCOCC4)ccc32)C1 (configuration not stated)
    · | 0.81
CCCNC(=O)CN1C(=O)CSc2ncccc21
    -0.87 | -0.24
CN(Cc1ccco1)C(=O)c1noc2c1COc1ccccc1-2
    -1.6 | 2.1
CCOC(=O)c1cnc(-c2ccccc2)nc1-c1ccncc1
    -0.33 | 0.15
CC(=O)N1c2ccc(S(=O)(=O)NCC3CCC(C(=O)N4CCCC(C)C4)CC3)cc2CC1C (configuration not stated)
    · | -0.95
CCC(C)N1CC23C=CC(O2)C(C(=O)OC)C3C1=O (configuration not stated)
    -0.57 | 0.85
CCOc1ccc(NC(=O)C2=Cc3sc(C)c(C)c3CS2)cc1
    · | -5.8
Cn1c(N)c(Sc2nnnn2-c2ccccc2)c(=O)[nH]c1=O
    -1.9 | 2.4
C=CCSc1n[nH]c(-c2ccc([N+](=O)[O-])cc2)n1
    -0.66 | ·
COC(=O)C1=C(C)NC(C)=C(C(=O)OCC(C)C)C1c1ccccc1[N+](=O)[O-] (configuration not stated)
    · | 0.53
CCc1ccc(-c2cc(C)no2)cc1S(=O)(=O)NCCCN1CCC(C)CC1
    · | -0.95
Oc1ccc(/C=C/c2ccc(/C=C/c3ccc(O)cc3)c(Br)c2)cc1
    -0.23 | ·
CCc1nnc(NC(=O)CSc2nc(-c3cccs3)cc(C(F)(F)F)c2C#N)s1
    -5.2 | ·
CC(=O)Oc1ccc(C(=O)Nc2ccc3nc(-c4ccccc4)oc3c2)cc1
    -2.4 | ·
Cc1c(-c2nc(-c3ccccc3F)no2)nnn1-c1ccc(Br)cc1
    · | 0.76
O=C1CC(c2ccccc2)n2ncnc2N1 (configuration not stated)
    -0.4 | 0.91
CC1CCN(C(=O)Cn2ncc3c([nH]c4ccccc43)c2=O)CC1
    · | -1.3

# (continued)
# Under each structure – CDC25B-CDK2 inh | TAR Tat displ
COC(=O)C1C(c2ccccc2)C(C(=O)OC)S(=O)(=O)CS1(=O)=O (configuration not stated)
    0.49 | 1.2
NC(=O)c1nc(-c2ccc(F)cc2)nc2c1[nH]c(=O)n2-c1ccc(F)cc1
    · | 1.1
O=C(C=P(c1ccccc1)(c1ccccc1)c1ccccc1)c1cccs1
    -3.4 | ·
CCOc1ccc2[nH]cc(S(=O)(=O)c3ccc(C(C)C)cc3)c(=O)c2c1
    0.64 | 0.64
O=C(NC1(C(F)(F)F)Oc2ccccc2O1)N1CCN(c2ccccc2)CC1
    0.35 | ·
O=C1c2[nH]nc(-c3ccccc3O)c2C(c2cccc(Br)c2)N1CCCO (configuration not stated)
    -0.05 | 0.93
O=C1c2ccccc2-c2onc3c(N4CCCCC4)cc(NCc4ccco4)c1c23
    -1.7 | 2.8
CC1CCN(S(=O)(=O)c2ccc3c(c2)NC(=O)CO3)CC1
    · | 1.8
O=C(Cn1ncn2c(cc3ccccc32)c1=O)N1CCN(c2ccccc2)CC1
    -0.66 | 0.8
CCn1nc(C)c(CNS(=O)(=O)c2ccc(CC(C)C)cc2)c1C
    · | -0.67
C/C(=N/OC(=O)Nc1ccccc1Cl)C1CC1
    -1.4 | ·
CC(C)N(C(=O)c1nn(C)c2c1COc1ccccc1-2)C1CCCCC1
    0.59 | 0.11
CC1CCC(NC(=O)Cn2c(=O)oc3cc(S(=O)(=O)N4CCc5ccccc54)ccc32)CC1 (configuration not stated)
    -3.1 | ·
CCc1ccc(S(=O)(=O)NCc2csc(-c3cccnc3)n2)s1
    0.72 | -1.7
COc1ccc(-c2csc(-c3nc(-c4ccc(F)cc4)cs3)n2)cc1
    · | 0.9
CN1C(N)=NC(=O)C12COC(c1cccnc1)OC2 (configuration not stated)
    -2.3 | ·
COc1ccc(OC)c(CCNc2ncnc3onc(-c4ccc(F)cc4)c23)c1
    · | -0.83
O=C(Cn1nc2c3ccccc3n(Cc3ccccc3)cc-2c1=O)NCCCc1ccccc1
    · | -1.1
Cc1ccc(-c2nnc3sc(-c4cc5ccccc5o4)nn23)cc1
    -0.5 | 2.2
COc1cc(OC)cc(-c2nc3n(n2)C(c2cccc(OC)c2OC)C2=C(CC(C)(C)CC2=O)N3)c1 (configuration not stated)
    -1 | -1.1
CCCc1nn2c(=O)cc(COC(=O)c3ccc(C)cc3)nc2s1
    · | -0.13
O=C(CSc1ccc(-c2ccncc2)nn1)N1CCCc2ccccc21
    · | 0.84
CC(=O)c1ccc(OCCCOc2ccc(C(C)=O)cc2)cc1
    0.46 | ·
CCCNC(=O)N1CCN(c2nc3cc(F)ccc3n3cccc23)CC1
    · | 0.28
CCn1c(-c2ccccc2O)n[nH]c1=S
    -1.6 | ·
COC(=O)c1cc(-c2cc(OC)ccc2OC)no1
    0.09 | -1.8
CN(Cc1nc(-c2cccnc2)no1)S(=O)(=O)c1ccc(Cl)cc1
    -2.8 | 2.3
CCc1cccc(C)c1NS(=O)(=O)c1ccc(-c2coc(C)n2)cc1
    · | -0.3
Cc1nn(-c2ccc(N3CCCC3)nn2)c(C)c1CCC(=O)Nc1cccc(Br)c1
    · | -0.02
C=CCNc1oc(-c2ccc(C)cc2)nc1C#N
    -1.1 | -0.87
CCOC(=O)c1c(NC(=O)c2snnc2C)c2cc([N+](=O)[O-])ccc2n1C
    -0.31 | ·
CCN(CC)c1cc2c(cc1F)c(=O)c(S(=O)(=O)c1ccc(OC)cc1)cn2C
    · | 0.86
COc1cccc(C(=O)CC2(O)C(=O)N(Cc3ccccc3)c3ccc(Br)cc32)c1 (configuration not stated)
    1.1 | 0.17
Cc1ccc(C)c(S(=O)(=O)c2cn(C)c3cc(N4CCC(C)CC4)c(F)cc3c2=O)c1
    · | -1.3
CC(C)CCN1C(=O)c2ccc(-c3ccco3)n2CC1(C)C(=O)NC1CCCC1 (configuration not stated)
    · | -0.01
Cc1ccc(CSc2nc(-c3ccc(C)cc3)cc(N3CCOCC3)n2)cc1
    1.1 | -0.16
Cc1ccc(-n2ncc3c(NCC4CCCO4)ncnc32)cc1 (configuration not stated)
    · | -1.2
Fc1ccc(N2CCN(c3nc4ccccc4c4nc(-c5cccnc5)nn34)CC2)cc1
    -0.58 | 2.4
COC(=O)c1nc2n(n1)C(c1cccc(Br)c1)C1=C(CCCC1=O)N2 (configuration not stated)
    -0.43 | ·
Cc1nnc2c3ccccc3nc(Nc3ccc(F)cc3Cl)n12
    · | 0.4
Cn1c(=O)c(/C=C/c2ccccc2)nc2ccccc21
    -1.2 | -6.7
O=C(CCC1CCCC1)N1CCC(c2nc(-c3ccc(S(=O)(=O)N4CCCC4)cc3)no2)CC1
    0.89 | -1.2
COC(=O)c1c(C)nc(C)c(C(=O)OC)c1-c1csc(S(=O)(=O)Nc2ccc(OC)cc2)c1
    3.9 | ·
Brc1ccc(-n2cc(-c3ccccc3)c3c(NCCCN4CCOCC4)ncnc32)cc1
    · | 1.4
CCOC(=O)COc1ccc2oc(C)c(C(=O)OC(C)C)c2c1
    -2 | 1

# In another format: results already given.
mol	CDC25B-CDK2 inh	TAR Tat displ
CSc1ccc(C2Nc3ccccc3NC3=C2C(=O)CC(C)(C)C3)cc1 (configuration not stated)	-1.9	1.1
Cn1c(=O)c(/C=C/c2ccccc2)nc2ccccc21	-1.2	-6.7
O=C1c2[nH]nc(-c3ccccc3O)c2C(c2cccc(Br)c2)N1CCCO (configuration not stated)	-0.05	0.93
Cc1ccc(-n2ncc3c(NCC4CCCO4)ncnc32)cc1 (configuration not stated)	·	-1.2
C=CCSc1n[nH]c(-c2ccc([N+](=O)[O-])cc2)n1	-0.66	·

# Remaining list, next part:
# Under each structure – CDC25B-CDK2 inh | TAR Tat displ
Cc1ccc(OCCSc2nnc(-c3cccs3)o2)cc1
    1.3 | 1.2
CS(=O)(=O)Nc1ccc(N2CCn3c(nc4ccccc43)C2)cc1
    -2 | 0.45
CC1=CCC2C(=O)N(c3ccccn3)C(=O)C2C1 (configuration not stated)
    0.74 | 0.34
CCn1nnc(NCc2ccc(Br)cc2)n1
    · | 0.94
CCC(=O)N1CCc2cc(Br)cc(S(=O)(=O)Nc3c(C)cc(C)cc3C)c21
    -0.07 | ·
Cc1ccccc1C1C2=C(CCCC2=O)Nc2nc(SCc3cccc(F)c3)nn21 (configuration not stated)
    -2 | -0.86
COc1ccc2c(c1)c(C(=O)CNc1nccs1)c(C)n2C
    -1.4 | 0.06
O=C(NCC1CCCO1)c1cc2c(s1)-c1ccccc1S(=O)(=O)C2 (configuration not stated)
    -1.3 | 1.5
C#CCNC(=O)Nc1csc([N+](=O)[O-])c1
    -1.4 | ·

# Entries listed so far with a nitro group on carbon:
# Under each structure – CDC25B-CDK2 inh | TAR Tat displ
C=CCSc1n[nH]c(-c2ccc([N+](=O)[O-])cc2)n1
    -0.66 | ·
COC(=O)C1=C(C)NC(C)=C(C(=O)OCC(C)C)C1c1ccccc1[N+](=O)[O-] (configuration not stated)
    · | 0.53
CCOC(=O)c1c(NC(=O)c2snnc2C)c2cc([N+](=O)[O-])ccc2n1C
    -0.31 | ·
C#CCNC(=O)Nc1csc([N+](=O)[O-])c1
    -1.4 | ·

# From PubChem
